Mtb growth: Mycobacterium tuberculosis H37Rv growth inhibition, cell based, confirmatory dose response (AID 1949); inhibition, % at 10 µg/mL, or IC50 in µg/mL where a hit was titrated; most inactive calls were filed without a number and no value below 0 was filed; hit rate 1.6% among 100,000;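 active = confirmed in a dose series; inconclusive = about 50% or more but not retested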;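 also: bacteria grown 7 days with compound before Alamar blue readout; 0% = untreated bacteria and 100% = reference antibiotic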
* = called active by the depositor; i = inactive; ? = inconclusive. The list is partial (hit frequency here may not be typical).

A first look, 6 compounds:
molecule,Mtb growth
COc1ccc(CNC(=S)Nc2cccc(Cl)c2C)cc1,i
CCOc1ccc(NC(=S)Nc2ccccc2SC)cc1,10%
OCCN1CCN(C(=S)NC2CC2)CC1,i
C=CCOc1c(CNc2ccc(NC(C)=O)cc2)cccc1OCC,i
O=C(O)Cn1c(/C=C/c2ccccc2)nc2ccccc2c1=O,i
Cc1cnn(CCCNC(=O)c2csc3ccccc23)c1,i

The whole of this part, repeating the preview:
molecule,Mtb growth
COc1ccc(CNC(=S)Nc2cccc(Cl)c2C)cc1,i
CCOc1ccc(NC(=S)Nc2ccccc2SC)cc1,10%
OCCN1CCN(C(=S)NC2CC2)CC1,i
C=CCOc1c(CNc2ccc(NC(C)=O)cc2)cccc1OCC,i
O=C(O)Cn1c(/C=C/c2ccccc2)nc2ccccc2c1=O,i
Cc1cnn(CCCNC(=O)c2csc3ccccc23)c1,i
CS(=O)(=O)N(CC(=O)N1CCCC1)c1cc(Cl)ccc1Cl,i
Cc1cc(C2(c3ccc(O)c(C)c3)C(=O)Nc3ccccc32)ccc1O,i
CCc1sc(C(=O)N2CCN(S(=O)(=O)c3ccccc3)CC2)cc1Br,i
CC(=O)Nc1ccc(-c2nnc(SCC(=O)N3CCOCC3)n2C)cc1,i
CC(C)(C)OC(=O)CN1C(=O)c2ccccc2S1(=O)=O,4%
CN1CCN(C(=O)COc2ccc(S(=O)(=O)Nc3ccc(Cl)cc3)cc2)CC1,i
CCc1sc(N(C(=O)Cc2ccccc2)c2ccccc2Br)nc1-c1ccccc1,i
O=C(c1c(F)cccc1F)N1CCN(c2cccc(C(F)(F)F)c2)CC1,i
S=c1nc(-c2sc3ccccc3c2Cl)[nH]c2ccccc12,i
COC(=O)CSc1nc2ccccc2c(=O)n1-c1ccc(C)cc1,5%
O=C(Nc1ccc(Nc2ccccc2)cc1)c1ccc(F)cc1,i
O=C(Nc1ccc2c(c1)OCCO2)C(=O)N1CCCCC1,i
Cc1ccc(NC2(C#N)C(=O)Nc3ccccc32)cc1 (stereo not given),i
O=C(Cc1ccccc1)Nc1ncc(Cc2ccc(Br)cc2)s1,i
COc1ccc(OCCCC(=O)Nc2ccc(S(=O)(=O)Nc3nc(C)cc(C)n3)cc2)cc1,i
O=C(COc1cc(Cl)c(Cl)cc1Cl)Nc1ccc2ccccc2c1,i
O=C(NC(=S)Nc1cc(Cl)c(O)c(Cl)c1)c1ccc(-c2cccc([N+](=O)[O-])c2)o1,3%
COC(=O)c1ccc(Oc2nc(NC(C)C)nc(SC)n2)cc1,5%
CC(C)(C)NC(=O)c1ccc(I)cc1,i
O=C(NC1CCS(=O)(=O)C1)c1ccc(I)cc1 (stereo not given),i
COc1ccc(-c2nnc(SCC(=O)c3ccc(-c4ccccc4)cc3)o2)cc1OC,i
Cc1ccc(OCCOCCN2CCN(C)CC2)c(I)c1,23%
O=C1N/C(=N/N=C/c2ccc(Cl)cc2)SC1Cc1ccc(F)cc1 (stereo not given),i
Cc1cc(Oc2nnnn2-c2ccc(C(=O)O)cc2)ccc1Cl,i
CCN(CC)c1ccc(NC(=O)CSc2nc3ccccc3[nH]2)cc1C,1%
COc1ccc(NC(=S)Nc2cccnc2)c(OC)c1,i
O=[N+]([O-])c1cc(C(F)(F)F)ccc1N1CCC(O)CC1,i
CCCN(CCC)c1ncnc2c1cnn2-c1ccc(OC)cc1,?
Cc1cc(C)n(C(=O)c2ccc(C)o2)n1,5%
COc1ccc(C2CC(=O)C3=C(C2)NC(C)=C(C(=O)Nc2ccccc2C)C3c2coc3ccc(C)cc3c2=O)cc1OC (stereo not given),3.7µg/mL*
COc1ccc(-c2ccc3c(n2)sc2c(O)cc(=O)[nH]c23)cc1,i
CC(NC(=O)Nc1ccccc1O)(C(F)(F)F)C(F)(F)F,11µg/mL*
O=S(=O)(c1ccc(Cl)cc1)c1nc(Cc2ccccc2)oc1N1CCOCC1,i
CC(C)C(=O)Nc1ccc(C(=O)Nc2ccc(Br)cc2F)cc1,0%
O=C(c1cc2ccccc2oc1=O)N1CCN(c2cccc(Cl)c2)CC1,i
Cn1c(=O)c2ncn(CC(=O)Nc3ccc4c(c3)C(=O)OC4)c2n(C)c1=O,2%
CCn1c(CNC(=O)c2ccc(OC)c(OC)c2)nnc1SCC(=O)Nc1ccccc1F,i
Cc1cccc(NC(=O)C(=O)NCCOc2ccccc2)c1,7%
COc1ccc(C)cc1NC(=O)Nc1ccc(Br)cc1F,5%
COC(=O)CSc1nnc(SCc2ccc(OC)cc2)s1,2.3µg/mL*
COC(=O)c1sc2cc(NC(=S)NNC(=S)NC3CCCCC3)ccc2c1Cl,i
Cc1c(Cc2ccccc2)sc(NC(=O)NC2CCCCC2)c1C(N)=O,5%

Shown field by field: entries from further up
> COc1ccc(-c2ccc3c(n2)sc2c(O)cc(=O)[nH]c23)cc1
- Mtb growth: i

> CC(NC(=O)Nc1ccccc1O)(C(F)(F)F)C(F)(F)F
- Mtb growth: 11µg/mL*

> O=S(=O)(c1ccc(Cl)cc1)c1nc(Cc2ccccc2)oc1N1CCOCC1
- Mtb growth: i

> CC(C)C(=O)Nc1ccc(C(=O)Nc2ccc(Br)cc2F)cc1
- Mtb growth: 0%

Additional entries follow:
molecule,Mtb growth
Cc1ccc(SCC(=O)NCc2ccncc2)cc1,i
CCOc1ccc(N(CC(=O)NC(C)C)S(=O)(=O)c2ccc(OC)c(OC)c2)cc1,i
O=C(CN1CCOCC1)NCc1ccccc1,i
COc1ccc(C(=O)NCC(=O)Nc2cccc(Cl)c2)cc1,4%
O=C(COc1cc2oc(=O)c3c(c2cc1Cl)CCCC3)c1ccccc1,i
COc1ccc(NC(=O)CSC2CCCCC2)cc1,?
Cc1ccc(-c2csc3nc4c5ccccc5c(NCCCN5CCOCC5)nn4c(=O)c23)cc1,i
CCc1nnc(NC(=O)c2sc3nc(C)cc(COC)c3c2N)s1,i
Cc1ccccc1CN(CC(=O)Nc1c(F)cccc1F)S(=O)(=O)c1ccc(Cl)cc1,i
Cc1ccc(C)c(NC(=O)CSCc2c(Cl)cccc2Cl)c1,0%
CCCCCOc1ccc(NC(=O)C(=O)NCCN2CCOCC2)cc1,18%
COc1cc(SC)ccc1C(=O)NC1CCCCC1,18%

(continued)
| SMILES | Mtb growth |
| --- | --- |
| O=[N+]([O-])c1cc(O)c2cc(-c3ccccc3)[nH]c2c1 | ? |
| Clc1cccc(CN2CCN(Cc3ccccc3)CC2)c1 | i |
| CCOC(=O)Cc1csc(NS(=O)(=O)c2ccc(Cl)cc2)n1 | i |
| COc1cc(NC(=S)NC(C)(C)C)cc(OC)c1 | 1% |
| CCOC(=O)c1ccc(NC(=S)Nc2ccc(Cl)cc2Cl)cc1 | 31% |
| COc1ccc(CNC(=O)C2CC(=O)N(c3ccc(OCC(=O)N4C(C)CCCC4C)cc3)C2)cc1 (stereo not given) | i |
| COCc1cc(C)nc2sc(C(=O)Nc3cc(Cl)ccc3OC)c(N)c12 | i |
| CCOC(=O)C(NC(=O)Nc1cc(C)on1)(c1ccc(F)cc1)C(F)(F)F (stereo not given) | 1% |
| Cc1ccc(-c2nnn(CC(=O)Nc3ccccc3I)n2)cc1 | i |
| CC(C)N(CC#CCC(O)(c1ccccc1)c1ccccc1)Cc1ccccc1 | i |
| Cc1nn(S(=O)(=O)c2ccc3ccccc3c2)c(C)c1Br | i |
| CC(Oc1ccc(Cl)cc1Cl)C(=O)Nc1ccccc1N1CCOCC1 (stereo not given) | 37% |
| O=C(O)c1ccc(NC(=S)NC(=O)c2ccc(I)cc2)cc1 | 1% |
| C=CCn1c(=N)c(S(=O)(=O)c2ccc(C)cc2)cc2c(=O)n3ccccc3nc21 | i |
| CCCOc1ccccc1CNCCCN1CCOCC1 | i |
| COc1ccc(Br)cc1C(=O)NC(=S)Nc1cccc(C(=O)O)c1C | i |
| O=C(CSc1nnc(Cc2cccc3ccccc23)n1-c1ccccc1)N1CCc2ccccc21 | 0% |
| CC(C)N(C(=O)c1ccccc1I)C(C)C | 5% |
| Cc1cc(I)cc(C)c1NC(=O)c1ccccc1 | i |
| Cc1ccc2c(=O)cc(-c3cccc(Br)c3)oc2c1 | i |
| CCC(NS(=O)(=O)c1ccc(C)cc1)C(=O)Nc1ccc(NC(C)=O)cc1 (stereo not given) | i |
| COC(=O)COc1ccc(S(=O)(=O)Nc2ccccc2F)cc1Cl | i |
| CC(=O)Nc1ccc(S(=O)(=O)N2CC3(C)CC2CC(C)(C)C3)cc1 (stereo not given) | i |
| COCCNC(=O)CSc1nc2sc3c(c2c(=O)[nH]1)CCC3 | 0% |
| Cc1ccc(S(=O)(=O)N2CCN(C(=O)COc3ccc(Cl)cc3)CC2)cc1 | i |
| O=C(O)c1ccc2c(c1)C(=O)N(Cc1ccc3c(c1)OCO3)C2=O | i |
| COC(=O)c1c(NC(=S)N2CCc3ccccc3C2)sc2c1CCC2 | 17% |
| CC(C)(C)c1cccc(OCCON2C(=O)CCC2=O)c1 | 3% |
| COc1ccc(NCc2nc3ccccc3n2Cc2ccccc2)cc1 | i |
| CCOc1ccc2nc(SCC(=O)Nc3ccc(S(=O)(=O)Nc4ccccn4)cc3)sc2c1 | i |
| CCOC(=O)Nc1nc(-c2ccc(Cl)cc2Cl)cs1 | 36% |
| COC(=O)c1c(N)sc(C(=O)N(C)C)c1C | i |
| CC1(C)CC(=O)C2=C(C1)N(c1ccc(F)cc1)C(=O)C2(O)C(F)(F)F (stereo not given) | i |
| CSc1cccc(NS(=O)(=O)c2ccc(C)c([N+](=O)[O-])c2)c1 | 2% |
| N#C/C(=C\C=C\c1ccco1)C(N)=S | i |
| COc1ccc(-c2nnn(CC(=O)N3CCOCC3)n2)cc1 | i |
| CC(=O)Oc1ccc(-c2csc(Nc3ncccn3)n2)cc1 | i |
| Cc1cc(C)c(C)c(S(=O)(=O)NCc2ccc(C(=O)N3CCCC3)cc2)c1C | i |
| N#Cc1c2c(c(-c3ccco3)[nH]c1=O)CCCC2 | 0% |
| CS(=O)(=O)N(CC(=O)Nc1ccc(CSc2ccccc2)cc1)c1ccc(Cl)c(Cl)c1 | i |
| CC1CCc2c(sc3ncnc(SC(C)C(=O)OCc4ccccc4)c23)C1 (stereo not given) | i |
| CCn1nnc(NC(=O)c2ccc([N+](=O)[O-])o2)n1 | i |
| CC(=O)c1sc(NC(=O)c2ccc(COc3ccc4ccccc4c3)o2)nc1C | i |
| COC(=O)N1CC(C)N(C(=O)OC)CC1C (stereo not given) | i |
| COC(=O)c1cccc(S(=O)(=O)N(C)C)c1 | i |
| COc1ccc(NC(=O)CSCc2cccc(Cl)c2)cc1 | 19% |
| O=C(CCC(=O)c1ccc(-c2ccccc2)cc1)Nc1cccc(C(F)(F)F)c1 | i |
| O=C(Nc1nc2c(s1)C(=O)NCCC2)c1ccccc1 | i |
| C=CCn1c(COc2ccc3ccccc3c2C)nnc1SCC(=O)NCc1ccccc1 | 7% |
| CC(C)NC(=O)c1c(NC(=O)c2ccccc2Cl)sc2c1CCCC2 | i |
| COc1ccc(NC(=O)c2ccc(C#CC3(O)CCCCC3)cc2)cc1 | i |
| O=C(Nn1cnnc1)c1cc2cc(Br)ccc2oc1=O | 43% |
| CC(C)CCOc1cccc(C2c3c(oc4ccc(Br)cc4c3=O)C(=O)N2CCN2CCOCC2)c1 (stereo not given) | i |
| O=C(CN1CCOCC1)N1CCN(c2nnc(-c3ccccc3)c3ccccc23)CC1 | 2% |
| CCOC(=O)C(=O)Nc1ccccc1C(=O)O | 11% |
| Cc1[nH]ncc1C(=S)Nc1ccccc1 | 2% |
| O=C(Nc1nnc(SCc2ccccc2)s1)c1ccc2c(c1)OCCO2 | i |
| CCC(=S)/C=C1\Sc2ccccc2N1CCCS(=O)(=O)O | i |
| COC(=O)Cc1c(C)c2ccc(OC(C)=O)c(C)c2oc1=O | i |
| O=C(CSCc1cccc(Cl)c1)Nc1cccnc1 | 28% |

(list continues)
| SMILES | Mtb growth |
| --- | --- |
| COC(=O)C1CCCN1C(=O)c1cccs1 (stereo not given) | 1% |
| COc1ccc(OC)c(S(=O)(=O)NCc2ccc(C)cc2)c1 | i |
| N#Cc1ccc(NC(=O)c2ccc(C(=O)Nc3ccc(C#N)cc3)cc2)cc1 | i |
| CC(Oc1ccccc1)C(=O)Nc1nnc(C2CCCCC2)s1 (stereo not given) | i |
| CCOc1ccc(N(CC(=O)NC2CCCCC2)S(=O)(=O)c2ccc(SC)cc2)cc1 | i |
| CSc1ccc(NC(=O)CSc2nc3ccccc3[nH]2)cc1 | 45% |
| COc1ccc(C=O)cc1Cn1cnc2ccccc21 | i |
| O=C(c1ccc(S(=O)(=O)N2CCCCCC2)cc1)N1CCN(c2ccccc2F)CC1 | 2% |
| N#Cc1ccccc1NC(=O)c1cccnc1 | 4% |
| CC1CN(c2nc3c(c(=O)n(C)c(=O)n3C)n2C)CC(C)O1 (stereo not given) | i |
| CC1=C(C)CC(C(=O)NCc2ccc3c(c2)OCO3)C(C(=O)O)C1 (stereo not given) | i |
| Cc1ccc(CN2CCN(C(=O)C3CCCO3)CC2)cc1 (stereo not given) | 0% |
| COc1ccc(-n2c(CCc3ccccc3)n[nH]c2=S)cc1 | i |
| CCOc1ccc(C(=O)Nc2cc3oc4ccccc4c3cc2OC)cc1OCC | i |
| CCOC(=O)c1c(C)nc(Nc2nc3ccccc3o2)nc1C | i |
| COC(=O)C1=C(C)N=c2s/c(=C\c3c(F)cccc3Cl)c(=O)n2C1c1ccc(OC)cc1 (stereo not given) | 7% |
| Cc1ccc(S(=O)(=O)N2CCCC2C(N)=O)cc1 (stereo not given) | i |
| CCCOc1ccc(N2C(=O)CC(N(CCc3ccccc3)C(=S)NCC)C2=O)cc1 (stereo not given) | 41% |
| Fc1ccc(CSc2nnc3c(n2)[nH]c2ccccc23)cc1 | i |
| CC1(c2ccccc2)CC(C)(C)N(C(=O)CSc2ncn[nH]2)c2ccccc21 (stereo not given) | 4% |
| O=S1(=O)CCC(NC(=S)Nc2ccc(O)cc2)C1 (stereo not given) | i |
| COc1cccc(CNC(=S)Nc2ccc(C)cc2C)c1 | i |
| CCOC(=O)c1c(NC(=O)Cc2nn(C)c(=O)c3ccccc23)sc2c1CCCC2 | i |
| COc1cc(C(=S)N2CCOCC2)cc(Cl)c1OC(=O)c1ccccc1Cl | 0% |

Bioassay records from PubChem.
